# Compound activity from PubChem.
# NPYLR7 agonist – agonists of mosquito NPYLR7 receptor, primary screen, cell-based, Aedes aegypti, calcium fluorescence, mosquito biting behavior; hit rate 0.15% among 270,000; HEK293T NPYLR7/Galpha15, GCaMP6s calcium fluorescence; Aedes aegypti neuropeptide Y-like receptor 7 (NPYLR7); activation, % at 10 µM; AID 1259423, 2018; in the data active = activation above about 40%;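 note: 0% = vehicle and 100% = reference agonist at the receptor; some compounds past the cut are filed as inactive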
# NPYLR7 agonist max-min – further read-out of NPYLR7 agonist, marked with its call; activation, %; measured here: Max-Min RFU normalised activation; some inactives read as strong as hits;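 span of the calcium signal over five minutes; 0% = vehicle and 100% = native peptide agonist; compound fluorescence can raise it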
# Active calls of the source: *; & = joins results of further samples. These rows are one share of the data; the hit share may differ from the screen's.
SMILES,NPYLR7 agonist,NPYLR7 agonist max-min
CCOc1nnc(CN(CCO)C2CCCc3ccccc32)s1 (stereo not drawn),3,11
CC1(C)CC(=O)C2=C(C1)OC(=N)C(C#N)C21C(=O)Nc2ccc([N+](=O)[O-])cc21 (stereo not drawn),6,6
COc1ccccc1C1(c2c(OC)c(=O)c2=O)SCCCS1,-2,-3
Cc1ccnc(NC(=O)COC(=O)c2ccc(F)cc2F)n1,4,2
O=C(NCCc1ccco1)c1ccc(Br)cc1F,-1,-1
COc1ccc(C(=O)NC(C)(C)c2nc(C(F)(F)F)cs2)cc1,-1,-2
COC(=O)c1ccc(C(=O)N2CCN(C(C)c3ccccc3)CC2)cc1 (stereo not drawn),30,21
Cc1sc2nc(/C=C/c3ccc(C#N)cc3)[nH]c(=O)c2c1C,8,7
Cc1cccc(-n2nc(-c3cccs3)cc2C(=O)N2CCN(c3cccc(C(F)(F)F)c3)CC2)c1,16,14
CC(=O)c1ccc(C(=O)N2CCC3(CCCN(CCC4CCCCC4)C3)C2)cc1 (stereo not drawn),1,-4
CN(Cc1ccccc1F)C(=O)CN(CC(N)=O)Cc1ccccc1,10,9
Cc1nc(SC(C)C(=O)Nc2ccc(F)cc2Cl)n[nH]1 (stereo not drawn),2,0

# 3 entries from above, ordered by SMILES length, smallest number first:
SMILES,NPYLR7 agonist,NPYLR7 agonist max-min
O=C(NCCc1ccco1)c1ccc(Br)cc1F,-1,-1
COC(=O)c1ccc(C(=O)N2CCN(C(C)c3ccccc3)CC2)cc1 (stereo not drawn),30,21
CC(=O)c1ccc(C(=O)N2CCC3(CCCN(CCC4CCCCC4)C3)C2)cc1 (stereo not drawn),1,-4

# Going on with the list:
SMILES,NPYLR7 agonist,NPYLR7 agonist max-min
O=C(CCn1cnc2ccccc21)NN=Cc1cc(Br)cc(Br)c1O,10,1
CCc1nccc(-c2c(-c3ccccc3)ncn2CCSc2nnnn2C)n1,22,15
CCCn1c(CCC(=O)Nc2cc(F)cc(F)c2)nc2cc(S(=O)(=O)N3CCCC3)ccc21,14,5
CCCNC(=O)c1cc(-c2ccc(F)cc2)nc2cc(C(C)(C)C)nn12,7,11
Cc1nc(CN2CCN(C(=O)C(C)NC(=O)c3ccoc3)CC2)cs1 (stereo not drawn),15,14
O=C(CSc1nc(=O)n(CCO)c2c1CCCC2)NC1CCCC1,-5,-15
O=C(/C=C/c1ccccc1)NC1CCN(c2ccccc2C(=O)NCCc2ccccc2)CC1,-2,7
COCC(=O)N(CC(=O)N1CCc2sccc2C1COc1cccc(F)c1)Cc1ccco1 (stereo not drawn),-5,0
COc1ccccc1-n1c(CNC(=O)c2ccco2)nnc1SCC(=O)Nc1nc2ccccc2s1,11,9
COC(=O)C1=C(C(=O)OC)SC(=C2C(=S)C(C)(C)N(C(C)=O)c3cc(C)ccc32)S1,2,5
O=C(Nc1cc(S(=O)(=O)N2CCCC2)ccc1O)c1ccc(Cl)cc1F,1,0
CC(C)CN(Cc1c(-c2ccc(F)cc2)noc1N1CCOCC1)C(=O)c1cccc(C(F)(F)F)c1,10,11

# Continued; the last six above are carried over.
SMILES,NPYLR7 agonist,NPYLR7 agonist max-min
O=C(/C=C/c1ccccc1)NC1CCN(c2ccccc2C(=O)NCCc2ccccc2)CC1,-2,7
COCC(=O)N(CC(=O)N1CCc2sccc2C1COc1cccc(F)c1)Cc1ccco1 (stereo not drawn),-5,0
COc1ccccc1-n1c(CNC(=O)c2ccco2)nnc1SCC(=O)Nc1nc2ccccc2s1,11,9
COC(=O)C1=C(C(=O)OC)SC(=C2C(=S)C(C)(C)N(C(C)=O)c3cc(C)ccc32)S1,2,5
O=C(Nc1cc(S(=O)(=O)N2CCCC2)ccc1O)c1ccc(Cl)cc1F,1,0
CC(C)CN(Cc1c(-c2ccc(F)cc2)noc1N1CCOCC1)C(=O)c1cccc(C(F)(F)F)c1,10,11
CCOC(=O)c1cnc2cc(C(F)(F)F)ccc2c1NCC(C)O (stereo not drawn),-15,-16
O=C(CCc1cscn1)NCC1CC12CCc1ccccc12 (stereo not drawn),5,3
O=C(c1ccc(N2CCOCC2)nc1)N1CCC(CCc2ccccc2)CC1,9,5
COc1ccc(-c2cc(C(=O)NCCCN3CCOCC3)n3nc(C(C)(C)C)cc3n2)cc1,-7&-17,1&-7
CCCCNC(=O)c1ccc(N2CCCCC2)c([N+](=O)[O-])c1,5,2
Ic1ccc(-c2ncc3ccccn23)cc1,4,1
COc1ccc(CN2CCN(Cc3cccn3-c3ccccn3)CC2CCO)c(C)c1C (stereo not drawn),7,3
CNC(=O)CN1CCC(NCc2cc(C)n(-c3ccc(Cl)cc3)c2C)CC1,-1,6
CCCn1ccnc1-c1c(-c2ccccc2)ncn1[C@H]1CCCC[C@@H]1O,22,13
CC(C)CC(C)NC(=O)c1ccc(-n2nc(-c3ccc(Cl)cc3)cc2N)cc1 (stereo not drawn),-7,-10
Cc1cnn(C(C)C(C)NCCS(=O)(=O)C(F)(F)F)c1 (stereo not drawn),6,5
O=C1OC(Nc2cccc(F)c2)c2ccccc21 (stereo not drawn),0,-2
O=C(Nc1ccc2c(c1)OCO2)c1cnccn1,0,2
O=C(c1cn(CC2CCCO2)nn1)N1CCCN(c2nc3ccccc3s2)CC1 (stereo not drawn),1,0
CC(=O)Nc1ccc(/C=C2/SC(=S)N(CC(=O)O)C2=O)cc1,0,-1
Cc1cc(C(=O)NCC2CCN(CCO)CC2)ccc1I,7,4
O=C(Cc1ccccc1)N1CCC2(CC1)SCCN2C(=O)C1CCCC1,18,27
COc1cc(OC)cc(C(=O)N2CCC[C@@H]2C(=O)NCCCNC(=O)c2ccc(F)cc2)c1,39,45
CCOc1ccc(C(=O)Nc2ccc3c4c(cccc24)CC3)cc1[N+](=O)[O-],-7,-7
COc1cc(C=C(C#N)S(=O)(=O)c2cc(Cl)ccc2Cl)cc(OC)c1,2,9
CCc1cnc2c(c1OC)c(=O)n(CC(=O)N1CCCCCC1)c(=O)n2C,4,2
CC(C)CNC(=O)c1coc(CN(Cc2ccc3c(c2)OCO3)Cc2ccc(Cl)cc2Cl)n1,4,39
C(=C\c1ccccc1)/CN1CCCC1c1ccsc1 (stereo not drawn),1,9
CCOc1cccc(=O)c2c(C)[nH]c(C)c12,19,16
Cc1cc(C)n(C(C)C(=O)Nc2ccc(-c3ncn[nH]3)cc2)n1 (stereo not drawn),5,2
Cc1noc(C)c1CNC(C)CC1CCCCC1 (stereo not drawn),-2,0
COc1cccc(CN(Cc2ccco2)Cc2nc(C(=O)O)co2)c1OC,2,-1
CCc1nc2ccc(C(=O)NCCN(C)C)cn2c1N(C)C(=O)Cc1ccccc1,4,22
CC1=NN(CC(=O)NCc2nc(-c3ccc(C)cc3)c(-c3ccccn3)[nH]2)CC1,12,4
CCc1nccc(CN2CCOc3c(O)cc(-c4cccc(Cl)c4)cc3C2)n1,-5,-8
COc1cc(C(=O)N2CCCC3(CC2)CN(C)C(=O)O3)ccn1 (stereo not drawn),17,14
CCc1cc2c(=O)c(-c3ccc4c(c3)OCO4)c(C(F)(F)F)oc2c(CN(C)C)c1O,-6,-10
CC1C(=O)N(c2ccc3c(c2)CCC3)CCN1C(=O)COc1ccc(Cl)cc1 (stereo not drawn),-1,3
CN1CCN(C(=O)c2ccccc2NC(=O)c2cccs2)CC1,-3,-5
CCCCCCNC(=O)c1csc(CSc2nnc(-c3cccnc3)n2-c2ccccc2C)n1,8,4
CC(C)NC(=S)NC1(c2ccccc2)CCC1,1,0
C=CCNCc1nccn1Cc1c(F)cccc1Cl,7,17
O=C(N=Nc1c(O)n(CN2CCOCC2)c2ccccc12)c1ccncc1,9,8
COc1ccccc1C1CN(CC(=O)N2CCN(c3nc(C)cnc3C)CC2)Cc2ccccc2O1 (stereo not drawn),5,-4
Cc1cccnc1NC(=O)c1ccc(=O)n(Cc2ccccc2F)c1,15,9
O=C(c1cccc(F)c1)N1CCCC(OCc2cccc(OC(F)(F)F)c2)C1 (stereo not drawn),-4,-1
CC(C1CC2CCC1C2)n1c(-c2cccs2)n[nH]c1=S (stereo not drawn),-7,-17
COc1ccc(NC(=O)CCC2CCCN(c3cc(OC)nc(OC)n3)C2)c(C)c1 (stereo not drawn),5,0
Cc1cccc(-n2c(SCc3ccc(C(=O)O)cc3)nnc2-c2cccs2)c1,6,1
COCCNc1nc2c(C)cccn2c(=O)c1C=C1SC(=S)N(Cc2ccco2)C1=O,0,5
CNC(=O)Cn1cc(-c2cccc(-n3cccn3)c2)cn1,4,0
N#Cc1ccc(N2C(=O)C3C4C=CC(O4)C3C2=O)cc1 (stereo not drawn),-3,-9
CN=c1scc(-c2ccc(OC(F)F)cc2)n1N=Cc1ccc(C#N)cc1,7,7
CCc1nc2n(n1)C(=O)C(C(c1ccc(Br)cc1)N1CCN(C(C)=O)CC1)S2 (stereo not drawn),-3,-12
Cc1csc(C(C#N)C(=O)CSc2nnc(NC3CC3)s2)n1 (stereo not drawn),11,11
Cc1cc(C)n(CCC(=O)N2CCC(=O)NCC2C)c(=O)n1 (stereo not drawn),17,14
CCc1sc(C(=O)O)cc1-c1ccc(C(N)=O)cc1,6,5
Cc1ccc(-n2ncc3c(=O)n(NC(=O)Cc4cccc5ccccc45)cnc32)cc1C,3,2
CNc1ccc([N+](=O)[O-])cc1C(=O)Nc1cc(C)ccn1,4,1
Cc1ccc(Cl)cc1-n1c(SCc2nc(C(=O)O)cs2)nnc1-c1ccncc1,2,-6
c1ccc2c(c1)oc1c(CN3CCn4cncc4C3)cccc12,5,4
Cc1cccnc1-n1c(SCC(=O)NC2CC2)nc2ccccc2c1=O,9,0
O=C(Nc1cccc(F)c1)C(C1CCCC1)N1CCN(C(=O)c2cc(F)cc(F)c2)CC1 (stereo not drawn),9,12
Cc1cc2ccccc2n1CCC(=O)N(C)Cc1ccco1,0,2
Cn1ncc(Br)c1C(=O)N/N=C\c1ccc(C(F)(F)F)cc1,1,0

# Continuation:
SMILES,NPYLR7 agonist,NPYLR7 agonist max-min
COc1cc(C)c(C)cc1S(=O)(=O)NCc1ccccc1Cl,4,2
COc1ccc(CNC(=O)CC[C@]23CC[C@](C)(O)C[C@H]2C(C)(C)C[C@@H]3NC(=O)c2cccs2)cc1,-11,-15
COc1cccc(C(=O)NCC(=O)NCc2ccc(C(F)(F)F)cc2)c1,8,3
CCOc1ccccc1C(=O)Nc1cc(-c2ccccc2)nn1-c1cccc(F)c1,3,1
CN(C)C(=O)N1CCN(Cn2nnc(-c3ccc(Cl)cc3)n2)CC1,8,7
O=C(c1ccc2c3c(cccc13)CC2)C1CCCN(C(=O)CCc2cnccn2)C1 (stereo not drawn),7,6
CC(C)c1nnc2sc(CCc3cccnc3)nn12,6,27
CC(Cl)C(=O)N1CCN(c2nccc(-c3ccc(C(C)(C)C)cc3)n2)CC1 (stereo not drawn),31,24
Cc1nc(NCCNC(=O)c2ccccc2F)cc(N2CCCC2)n1,1,1
NS(=O)(=O)c1ccc(C(=O)NCc2cc(F)cc(Br)c2)o1,7,6
COc1ccccc1Oc1cc(C(C)(C)C)nc(SCc2ccccc2Cl)n1,0,5
Cc1ccc(C2=NOC(CN(Cc3cccc(Cl)c3)CC(O)COCc3ccccc3)C2)cc1 (stereo not drawn),-2,0
CC(SCc1ccc(F)cc1Cl)C(=O)NC1CC1 (stereo not drawn),-4,-6
Cc1cccc(OCC2CCCN(Cc3ncccc3C(=O)O)C2)c1 (stereo not drawn),-3,-6
Cc1ccc(CN(CCN(C)C)C(=O)c2cccc3c2OCCO3)s1,0,2
CCNC(=O)N(CCOC)Cc1csc(COc2cccc3ccccc23)n1,27,20
Cc1ccc(CNc2ncnc3ccc(-c4ccc(CO)o4)cc23)o1,6,-2
CC1=C(C(=O)OCC(F)(F)F)C(c2ccc3c(c2)OCO3)NC(=O)N1 (stereo not drawn),-1,-4
CC(C)(C)c1nc(C(=O)Nc2ccc(S(C)(=O)=O)nc2)cs1,-3&0,-4&2
Brc1cc2c(cc1/C=N\Nc1nc(N3CCCCC3)nc(N3CCOCC3)n1)OCO2,-15,-18
CCCCN(CC(=O)N1CCc2sccc2C1c1ccccc1)C(=O)c1cccc(C(F)(F)F)c1 (stereo not drawn),1,15
O=C1NC(=S)N/C1=C\c1cc(Br)cc(Br)c1O,-3,-9
Cc1nc2c(=O)n(CC(=O)N3CCCc4ccccc43)nc(-c3ccco3)c2s1,0,-3
COc1cccc(CCC(=O)N2CCc3c(cnc(C)c3CNS(=O)(=O)c3cccs3)C2)c1,6,2
COCCN1CCCC(O)(CN2CCN(c3cc(C)nc4ncnn34)CC2)C1=O (stereo not drawn),7,19
CN(Cc1ccc(Cl)cc1)Cc1cc2c(cc1O)OCO2,-1,-2
COc1cc(Br)c(COC(=O)c2c(C)noc2N)cc1OC,9,4
CC1C(c2cccs2)=[N+]([O-])C(C)(c2ccc(Br)cc2)N1O (stereo not drawn),9,9
NC(=O)COc1cccc(CN2CCCSc3ccccc32)c1,3,1
CCC(NC(=O)c1cnn(Cc2ccccc2)c1)c1ccnn1C (stereo not drawn),-1,3
CCOCC(=O)N1CCN(c2ncnc3c2nnn3CC)CC1,1,5
O=C(NCCS(=O)(=O)c1ccc(F)cc1)C1CC2(CCNCC2)CN1 (stereo not drawn),10,9
NC(=O)C1CCN(C(=O)CCc2csc(NC(=O)c3ccc[nH]c3=O)n2)CC1,-8,-15
O=C(Nc1cccc(F)c1)N1CCC2(CC1)SCCN2C(=O)c1ccc(Cl)cc1,-2,14

# Whole records, looked up by structure.
# Listed for `O=C(NCCS(=O)(=O)c1ccc(F)cc1)C1CC2(CCNCC2)CN1` (stereo not drawn) : NPYLR7 agonist: 10; NPYLR7 agonist max-min: 9
# Listed for `COCCN1CCCC(O)(CN2CCN(c3cc(C)nc4ncnn34)CC2)C1=O` (stereo not drawn) : NPYLR7 agonist: 7; NPYLR7 agonist max-min: 19
# Listed for `CC1C(c2cccs2)=[N+]([O-])C(C)(c2ccc(Br)cc2)N1O` (stereo not drawn) : NPYLR7 agonist: 9; NPYLR7 agonist max-min: 9
